Source: PubChem BioAssay (Fisher Drug Discovery Resource Center)
NPYLR7 ag = mosquito NPYLR7 agonism | HEK293T NPYLR7/Galpha15, GCaMP6s calcium fluorescence | activation, % at 10 µM | actives 0.15% (n = 270,000) | AID 1259423; in the data active = activation above about 40%;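 also: 0% = vehicle and 100% = reference agonist at the receptor; some compounds past the cut are filed as inactive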
NPYLR7 ag max-min = further read-out of NPYLR7 ag, marked with its call; activation, %; measured here: Max-Min RFU normalised activation; some inactives read as strong as hits;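 span of the calcium signal over five minutes; 0% = vehicle and 100% = native peptide agonist; compound fluorescence can raise it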
The depositor's hits bear a star; & = joins results of further samples. The list is partial, so the mix of outcomes need not match the whole.

SMILES | NPYLR7 ag max-min | NPYLR7 ag
CCOC(=O)c1cc(Cc2ccccc2)sc1NC(C)=O | 9 | 17
O=C(COc1ccc(Cl)cc1)Nc1ccc(F)c(NC(=O)C2CC2)c1 | -1 | 3
CCOc1cccc2cc(C(N)=O)c(=Nc3cccc(F)c3)oc12 | -15 | -5
COc1ccc(OCCNC(=O)c2cccs2)cc1 | -3 | -3
CCOc1ccccc1C(=O)Nc1ccc(N2CCN(C(=O)NCC3CCCCC3)CC2)nc1 | 0 | 6
CCN(CC)c1ccc(NC(=O)c2ccc3nc[nH]c3c2)cc1 | 4 | 9
CCOC(=O)c1c(NC(=O)c2cnn3c(C(F)(F)F)cc(-c4ccco4)nc23)sc2c1CCCC2 | 22 | 23
Cc1cccc(C)c1NC(=O)c1cccc(CN(C)Cc2cnccn2)c1 | -1 | -1
Cc1ccsc1C(=O)N1CCC2(CCCN(CC(C)(C)C)C2=O)C1 (stereo unspecified) | 9 | 17
CNC(=O)NC(=O)C(C)OC(=O)c1nn(-c2ccc(F)cc2)c2c1CCC2 (stereo unspecified) | -2 | 2
Cc1csc(=O)n1CC(=O)NCc1ccc(Cl)cc1 | 2 | 8
O=C(O)C(O)c1ccc(Br)cc1 (stereo unspecified) | -2 | -1
Cc1cc(Oc2cccc(F)c2)nc(SCc2ccccc2C)n1 | -1 | 0
Cc1cc(NC(=O)C(C)Sc2nccn2-c2ccc(C)c(C)c2)no1 (stereo unspecified) | 1 | 3
Cn1c(=O)c2c(SCc3cccnc3)nc(-c3ccccc3Cl)nc2n(C)c1=O | -10 | -4
O=S(=O)(NC1CCCCC1n1cc(-c2ccccc2)nn1)c1ccccc1 (stereo unspecified) | -17 | -12
CN(Cc1ccc(F)cc1)C(=O)NCCc1cccs1 | 8 | 11
N#Cc1ccc(OCc2nc(-c3ccccc3)no2)cc1 | 2 | 3
O=C(CN1CCc2sccc2C1c1ccccc1)NC(=O)NC1CCCC1 (stereo unspecified) | 4 | 5
Clc1ccccc1CSCc1csc(Cc2ccc3c(c2)OCO3)n1 | -4 | 2

Of the compounds above, these have a halogen:
SMILES | NPYLR7 ag max-min | NPYLR7 ag
O=C(COc1ccc(Cl)cc1)Nc1ccc(F)c(NC(=O)C2CC2)c1 | -1 | 3
CCOc1cccc2cc(C(N)=O)c(=Nc3cccc(F)c3)oc12 | -15 | -5
CCOC(=O)c1c(NC(=O)c2cnn3c(C(F)(F)F)cc(-c4ccco4)nc23)sc2c1CCCC2 | 22 | 23
CNC(=O)NC(=O)C(C)OC(=O)c1nn(-c2ccc(F)cc2)c2c1CCC2 (stereo unspecified) | -2 | 2
Cc1csc(=O)n1CC(=O)NCc1ccc(Cl)cc1 | 2 | 8
O=C(O)C(O)c1ccc(Br)cc1 (stereo unspecified) | -2 | -1
Cc1cc(Oc2cccc(F)c2)nc(SCc2ccccc2C)n1 | -1 | 0
Cn1c(=O)c2c(SCc3cccnc3)nc(-c3ccccc3Cl)nc2n(C)c1=O | -10 | -4
CN(Cc1ccc(F)cc1)C(=O)NCCc1cccs1 | 8 | 11
Clc1ccccc1CSCc1csc(Cc2ccc3c(c2)OCO3)n1 | -4 | 2

The list goes on:
SMILES | NPYLR7 ag max-min | NPYLR7 ag
COc1ccc(OC(C)=O)c(/C=C2\N=C(c3cccc(C)c3)OC2=O)c1 | -6 | -1
N#CCCCN1CCN(C(=O)c2ccc(-c3cc(-c4ccc(Cl)cc4Cl)[nH]n3)cc2)CC1 | 2 | -3
CC1=NN(C)c2nc3c(c(=O)n(Cc4ccc(Cl)cc4Cl)c(=O)n3C)n2C1 | -10 | -7
O=C(c1sccc1Cl)N1CCc2onc(-c3ccccc3F)c2C1 | -2 | 2
O=C(C1CNCCN1C(=O)c1ccc(Cn2ccnc2)o1)N1CCCC1 (stereo unspecified) | 4 | 8
O=c1[nH]c(SCc2c(F)cccc2Cl)nc2ccsc12 | 1 | 1
CCCC(O)CNC(c1nc(-c2ccc([N+](=O)[O-])cc2)no1)C(C)C (stereo unspecified) | 1 | 10
Cc1cnccc1CN(C)C(=O)c1cn(Cc2ccc(Cl)cc2)nn1 | 7 | 10
COc1ccc(NC(=O)c2ccc(=O)n(Cc3ccccc3)c2)c(OC)c1 | 5 | 15
FC(F)(F)c1cc(CO[C@H]2CCCN[C@H]2c2ccccc2)cc(C(F)(F)F)c1 | -35 | 12
CCOc1ccc(C(=O)CCC(=O)Nc2nccn2CC2CC2)cc1 | -4 | -1
CC(C)(C)c1ccc(C(=O)NCCNc2nc(-c3ccccc3)nc3ccccc23)cc1 | 14 | 21
C=CCN(CC1CC(c2ccccc2Cl)=NO1)C(=O)c1cccc(F)c1 (stereo unspecified) | -5 | -9
CC(=O)Nc1c(-c2cc(F)ccc2F)nc2ccccn12 | -2 | -5
CC1=NN(C2(CNC(=O)c3ccccc3)CCCCC2)C(c2ccccc2)C1 (stereo unspecified) | -6 | -2
CN(C)CC1COCCN(Cc2ccccc2C#Cc2ccccc2)C1 (stereo unspecified) | 3 | 3
O=C(NCC1CCCCCC1)c1ccc(-c2ccc3c(c2)OCO3)s1 | 2 | 7
O=S(=O)(NC1=NCN(CCO)CN1)c1ccccc1 | -8 | -1
CCCc1nc(N2CCN(C(=O)Nc3ccccc3OC)CC2)c2c(-c3cccc(C(F)(F)F)c3)noc2n1 | -9 | -6
CCOc1cc2c(cc1OCC)CN(CN1C(=O)c3ccccc3C1=O)CC2 | 2 | 7
COc1ccc(/C=C/c2nn3c(=O)c(C)nnc3s2)cc1 | 14 | 10
N#CC1C(=N)Oc2c(sc3ccccc23)C1c1ccc(C(F)(F)F)cc1 (stereo unspecified) | 3 | 6
CC(=O)c1ccc(C(=O)N(Cc2cccnc2)c2nc3c(Cl)cccc3s2)cc1 | -5 | -6
CN(Cc1cccc(Cl)c1)Cn1nc2n(C)c(=O)c3ccccc3n2c1=S | 17 | 13
Cc1ccc2oc(-c3cc(N)ccc3Cl)nc2c1 | -5 | 0
O=C(Nc1ccccc1)C1CCCN1c1ncnc2ccccc12 (stereo unspecified) | 4 | 1
O=S(=O)(NCc1cn(Cc2ccccc2)nc1-c1ccccc1)c1cccc(F)c1 | 6 | 6
CCc1nc2c(OCCOc3ccc(F)cc3)cccn2c1N(C)C(=O)C(C)C | 3 | 0
COc1ccc(-c2csc(=Nc3ccccc3F)n2NC(=O)CNc2ncc(C(F)(F)F)cc2Cl)cc1 | -13 | -6
Cc1ccc(S(=O)(=O)Oc2c(C)cccc2-c2nc3ncccc3o2)cc1 | 12 | 1
O=C(NCCN1CCOCC1)c1cc(-c2ccc(F)cc2)n2nc(-c3ccccc3)cc2n1 | -1&13 | -9&3
Cc1cc(C)n2cc(CSc3ccc(Cl)cc3)nc2n1 | -6 | -7
CN(C)CCCN(C(=O)C1=COCCO1)c1nc2ccc(F)cc2s1 | -2 | 0
CCOc1ccccc1-c1nccn1CCSc1nnnn1C | -12 | -2
N#Cc1ccc(CO[C@]2(C(=O)NCCN3CCCC3)CC(OCc3cccc(Cl)c3)[C@H](O)[C@H](O)C2)cc1 (stereo partly specified) | 2 | 5
COc1ccc(C2=NN(S(C)(=O)=O)C(c3ccco3)C2)cc1OC (stereo unspecified) | -6 | -4
Cc1cccc(-c2ccnc3nc(N4CCN(C(=O)c5ccc(C#N)cc5)CC4)nn23)c1 | 18 | 30
O=C(Cn1nnc2sc3c(c2c1=O)CCCC3)OC1CCCCC1 | -2 | 2
Cc1ccccc1-c1noc(/C(C#N)=C\c2ccsc2)n1 | 23 | 39
O=C(NCCn1ncc2c(N3CCOCC3)ncnc21)c1ccc(=O)oc1 | -1 | 0

Quoted from the listing:
Entry of Cc1cccc(-c2ccnc3nc(N4CCN(C(=O)c5ccc(C#N)cc5)CC4)nn23)c1 in NPYLR7 ag: 30
Entry of CC(=O)c1ccc(C(=O)N(Cc2cccnc2)c2nc3c(Cl)cccc3s2)cc1 in NPYLR7 ag: -6
Entry of O=S(=O)(NCc1cn(Cc2ccccc2)nc1-c1ccccc1)c1cccc(F)c1 in NPYLR7 ag: 6
Entry of O=C(Nc1ccccc1)C1CCCN1c1ncnc2ccccc12 (stereo unspecified) in NPYLR7 ag max-min: 4

Random excerpt: 2 entries already listed, in no set order.
SMILES | NPYLR7 ag max-min | NPYLR7 ag
O=C(Nc1ccccc1)C1CCCN1c1ncnc2ccccc12 (stereo unspecified) | 4 | 1
COc1ccc(C2=NN(S(C)(=O)=O)C(c3ccco3)C2)cc1OC (stereo unspecified) | -6 | -4

Continuation.
SMILES | NPYLR7 ag max-min | NPYLR7 ag
COc1cc2c(cc1OC)CN(C(=O)C(C)N1C(=O)c3ccc(C)cc3C1=O)CC2 (stereo unspecified) | 6 | 11
CSc1nc2ncc3c(=O)n(CCN4CCOCC4)ccc3n2n1 | 5 | 3
Cc1ccc2c(C)c(C(=O)NCCc3ccco3)oc2c1C | -7 | -2
CCOC(=O)c1nn(-c2ccccc2Cl)c(=O)cc1OS(=O)(=O)c1ccc(C)c(C)c1 | 5 | 0
CCOc1ccccc1S(=O)(=O)NCC1CCN(Cc2ccsc2)CC1 | -9 | -7
CC(NC(=O)c1cccc2ccccc12)c1ccccc1F (stereo unspecified) | -3 | 1
CCCCc1ccc(C(=O)N2CCCC(C(=O)NC3CCCC[C@H]3NC(=O)c3ccccc3C)C2)cc1 (stereo partly specified) | 23 | 27
O=C(NCc1ccc(Oc2ccccc2)cc1)c1nc(-c2cc(Br)c(O)c(Br)c2)no1 | -8 | -3
CC(C)C(C)N(Cc1ccc2c(c1)OCO2)Cc1nc(C(=O)NCCN2CCOCC2)co1 (stereo unspecified) | 45 | 18
COc1ccccc1N1CCN(c2ncnc3c2CCNC3)CC1(C)C | -2 | 7
COc1cc(C(C)=O)ccc1OS(=O)(=O)c1cn(C)c(=O)n(C)c1=O | -1 | -2
CC(C)c1cc(Nc2ccc(S(N)(=O)=O)cc2)cc(C(C)C)c1O | 7 | 2
O=C(Nc1ccccc1O)c1cc(S(=O)(=O)N2CCOCC2)ccc1Cl | -8 | -4
COc1cc(=O)n(-c2ccccc2C)nc1C(=O)NC(C)C | 2 | 4
CCC(CO)N(Cc1cccc(F)c1F)c1ccccc1 (stereo unspecified) | 0 | 0
CC(c1nc(C(C)(C)C)no1)S(=O)CC(=O)NC(C)(C)C (stereo unspecified) | 0 | 2
COc1ncccc1C(=O)NCCCN1CCC(O)CC1 | 4 | 4
C=CCn1c(-c2ccc([N+](=O)[O-])cc2)nc2nc3ccccc3nc21 | -10 | -2
CN(C(=O)c1cccs1)c1ccccc1C(=O)N[C@@H]1C[C@@H](CO)N(C)C1 | 6 | 9
C#Cc1ccc(NC(=O)C2(C)CCN2C(=O)C2(c3ccccc3)CC2)cc1 (stereo unspecified) | 17 | 0
COc1ccc(CCOC(=O)C2CCCCN2C(=O)c2cccc([N+](=O)[O-])c2)cc1OC (stereo unspecified) | 6 | 29
COc1ccc(CCNC(=O)c2cc(-c3ccc(Cl)cc3)n(-c3ccc(F)cc3)c2C)cc1OC | 17 | 12
CCc1cn[nH]c1C1CCCN(C(=O)CCn2c(=O)[nH]c3ccccc32)C1 (stereo unspecified) | -2 | 0
N#CCn1c2ccccc2c2nc3ccccc3nc21 | -1&6 | 1&9
CN(C)C(CNC(=O)C1CCN(S(=O)(=O)c2cccc(C(F)(F)F)c2)CC1)c1cccs1 (stereo unspecified) | 0 | 0
COc1nc2c(cc1C(=O)N1CC(c3cccnc3)C1)CCC2 | 1 | 3
COc1ccc(CCN2C(=O)CC(N3CCN(c4ncccn4)CC3)C2=O)cc1OC (stereo unspecified) | -1 | 2
CCOc1ccc(-c2nc(-c3ccc([N+](=O)[O-])cc3)no2)cc1 | -20 | -9
Cc1sc2nc(CN3CCN(S(=O)(=O)c4ccccc4F)CC3)nc(N)c2c1C | -7 | 0
COc1cc(-c2cnnc(NCCCn3cccn3)n2)cc(OC)c1OC | -10 | -8
CC1CCc2c(sc(NC(=O)c3ccc(=O)n(C)n3)c2C(N)=O)C1 (stereo unspecified) | 10 | 6
CCn1cc(CN2C[C@@H](C(=O)O)C[C@@H](C(=O)Nc3ccc(F)cc3)C2)cn1 | 6 | 8
O=c1ccc(-c2cccnc2)nn1CCNS(=O)(=O)c1cc(Cl)ccc1Cl | -7 | -4
CCn1cc(CN2CCCC(C(=O)c3ccc4c5c(cccc35)CC4)C2)c(C)n1 (stereo unspecified) | 2 | 13

Record cards, as listed above:
`O=C(O)C(O)c1ccc(Br)cc1` (stereo unspecified) as listed: NPYLR7 ag max-min = -2; NPYLR7 ag = -1
`COc1ccc(CCN2C(=O)CC(N3CCN(c4ncccn4)CC3)C2=O)cc1OC` (stereo unspecified) as listed: NPYLR7 ag max-min = -1; NPYLR7 ag = 2
`Cc1cccc(-c2ccnc3nc(N4CCN(C(=O)c5ccc(C#N)cc5)CC4)nn23)c1` as listed: NPYLR7 ag max-min = 18; NPYLR7 ag = 30
